High-throughput results: PubChem BioAssay, ICCB-Longwood Screening Facility, Harvard Medical School
AID504770: growth inhibitors of E. coli YBA685 in a screen for V. cholerae RctB (chromosome II replication) inhibitors; E. coli YBA685 rctB-dependent plasmid, OD600 growth, 3 h; hits give low values; z-score (concentration not given with the values); 0.27% of 130,000 active; AID 504770;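 active means z-score under -2 on both plates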;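 further: wells of about 30 µL received 100 nL stock; score is relative to mean and SD of the test wells; the first replicate is given; strong numbers were not always called active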
CapD inh: inhibitors of Bacillus anthracis CapD enzyme; purified CapD enzyme, fluorescence intensity read-out; hits give low values; some hits fall short of the stated cut; z-score (concentration not given with the values); 0.23% of 140,000 active; AID 492967;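 active means z-score under -4 in either of two replicates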;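 further: stock transfer was 100 nL into about 40 µL; score is relative to mean and spread of the plate; one replicate is shown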
Active calls of the source: *; . = not tested or not shown.

Below each SMILES: AID504770	CapD inh
CCOC(=O)N1CCN(C(=O)c2c[nH]c3ccc(S(=O)(=O)N(C)c4ccccc4CC)cc3c2=O)CC1
 : .	8.01
Cn1c(SCCS(=O)(=O)c2ccc(F)cc2)nnc1C(F)(F)F
 : -0.45	-0.515
CCS(=O)(=O)c1nc2ccccc2n1Cc1ccccc1Cl
 : -0.8	-0.235
CC1(C)CC(=O)C2=C(C1)Nc1[nH]c(=O)[nH]c(=O)c1C2c1ccc(O)cc1 (stereo unspecified)
 : .	-1.04
N#CCC(=O)N1N=CCC1(O)C(F)(F)F (stereo unspecified)
 : -3.7	.
N=C1S/C(=C\c2ccccc2)C(=O)N1c1ccc(F)cc1
 : -0.25	0.075
CC(C)CNCC(=O)Nc1cc(C(F)(F)F)cc(C(F)(F)F)c1
 : -0.2	.
CC(=O)N[C@H]1[C@H](Oc2ccc(Cl)cc2Cl)O[C@H](CO)[C@@H](O)[C@@H]1O
 : 0.3	0.25
NC(=O)C1CCN(C(=O)CCCn2c(=S)[nH]c3ccccc3c2=O)CC1
 : -0.55	0.245
COc1ccc(NC(=O)c2cc3ccc(OC)cc3oc2=Nc2ccc(C(=O)O)cc2)c(OC)c1
 : .	-1.52
Cn1cnnc1SCc1nc2ccccc2[nH]1
 : 1.3	.
COc1ccc2cc(S(=O)(=O)N3CCN(C)CC3)ccc2c1
 : -0.25	2.29
CCn1nnnc1NCc1cccc(Cl)c1
 : -0.6	-0.005
Clc1ccc(/C=C/c2nnc(SCc3ccccc3)o2)c(Cl)c1
 : .	-0.665
CCc1ccc(NC(=O)c2sc3nc4c(cc3c2N)C(=O)CC(C)(C)C4)cc1
 : .	-0.53

A second format for some results above.
Compound	AID504770	CapD inh
CC(=O)N[C@H]1[C@H](Oc2ccc(Cl)cc2Cl)O[C@H](CO)[C@@H](O)[C@@H]1O	0.3	0.25
Clc1ccc(/C=C/c2nnc(SCc3ccccc3)o2)c(Cl)c1	.	-0.665

The main list resumes; the five compounds before the break are reprinted first.
Below each SMILES: AID504770	CapD inh
Cn1cnnc1SCc1nc2ccccc2[nH]1
 : 1.3	.
COc1ccc2cc(S(=O)(=O)N3CCN(C)CC3)ccc2c1
 : -0.25	2.29
CCn1nnnc1NCc1cccc(Cl)c1
 : -0.6	-0.005
Clc1ccc(/C=C/c2nnc(SCc3ccccc3)o2)c(Cl)c1
 : .	-0.665
CCc1ccc(NC(=O)c2sc3nc4c(cc3c2N)C(=O)CC(C)(C)C4)cc1
 : .	-0.53
Cc1cccc(N2C(=O)c3ccc(Oc4ccc5c(c4)C(=O)N(c4cccc(C)n4)C5=O)cc3C2=O)n1
 : -0.6	0.43
CCCCSc1nnc2c(n1)OC(c1cc3c(cc1[N+](=O)[O-])OCO3)Nc1ccccc1-2 (stereo unspecified)
 : .	-1.25
CCC(C)NC(=O)Cc1n[nH]c(=O)c2ccccc12 (stereo unspecified)
 : 0.7	.
CS(=O)(=NC(=O)Nc1ccccc1)c1ccsc1 (stereo unspecified)
 : -0.8	0.26
Cc1ccc(CS/C(Nc2ccc(C)c(C)c2)=C(\C#N)C(=O)NCc2ccco2)c(C)c1
 : .	-0.055
CC1=NN(C(=O)c2ccccc2)C(O)(C(F)(F)OC(F)(F)F)C1 (stereo unspecified)
 : -0.65	-0.32
Cc1ccccc1NC(=O)Nc1ccccc1N1CCCCC1
 : 1.6	1.05
Cc1c(NC(=O)C(Cc2ccccc2)N2C(=O)C3C4C=CC(C4)C3C2=O)c(=O)n(-c2ccccc2)n1C (stereo unspecified)
 : 0.55	-0.145
Cc1c(C(=O)O)sc2ncnc(N3CCCCC3C)c12 (stereo unspecified)
 : .	0.115
COc1cccc(C(=O)Nc2ccc(-n3nncc3C(C)(C)C)cc2)c1
 : 0.05	0.55
O=C(Nc1ccc(-c2ccc(Cl)cc2)oc1=O)c1ccc(Cl)cc1
 : .	-0.435
CCOC(=O)c1cnc2ccc(C(F)(F)F)cn2c1=O
 : .	95.1
CCOC(=O)c1sc2nc(CC(=O)OC)nc(N3CCN(c4ccc(F)cc4)CC3)c2c1C
 : .	-0.195
CC(=O)Nc1ccc2nc(C)sc2c1
 : -1.2	-5.69*
O=C(NCc1n[nH]c(=S)n1-c1ccccc1)c1ccccc1
 : -0.95	0.3
CCOc1ccc(N/C(SCc2ccc(C)cc2C)=C(/C#N)C(N)=O)cc1
 : .	-0.045
Cc1ccnc(N(C(=O)Nc2ccc(Cl)cc2)C2=NCC(C)S2)c1 (stereo unspecified)
 : -0.35	-0.375
CCCNC(=O)c1ccc(CN2CCCn3nc(C)cc32)cc1
 : 0.45	0.48
NS(=O)(=O)c1ccc(NNC(=O)CC2(CC(=O)O)CCCC2)cc1
 : -0.15	0.415
CC(C)(C)C(=O)N1CCN(c2nc(-c3ccc(Cl)cc3)c(S(C)(=O)=O)cc2C#N)CC1
 : .	0.405
CCOC(=O)c1sc(-c2ccc(C)cc2)cc1N
 : 0.2	.
CN1CCN(C(=O)c2cc(C(C)(C)C)cc(C(C)(C)C)c2)CC1
 : -0.9	0.07
O=C(NCCc1ccncc1)OCc1ccccc1-c1ccccc1
 : .	0.21
CCOC(=O)C1CCN(c2c(C(=O)c3ccccc3)cnc3ccc(CC)cc23)CC1
 : -0.75	-0.975
CCOC(=O)c1c(N)n(-c2ccccc2)c2nc3ccccc3nc12
 : 1.05	32
CCOc1ccccc1C(=O)Nc1nncs1
 : -0.9	.
COC(=O)C1=C(C(=O)OC)C2(OC1c1ccc(C)c(Cl)c1)C(=O)c1ccccc1C2=O (stereo unspecified)
 : .	-0.26
O=c1c2c3c(sc2nc2n1CCCC2)CCCC3
 : .	10.7
Clc1cccc(C2C=C(c3cccnc3)Nc3nc4ccccc4n32)c1 (stereo unspecified)
 : 0.2	0.405
CCNC1(c2cccc(Cl)c2)CCC1
 : -0.9	-0.035
Cc1cc(C)n2cc(CN3CCOCC3)nc2n1
 : -0.6	27.2
COc1ccc2c(c1)CN(c1ccc(C)cc1C)CO2
 : -0.7	0.085
CC(=O)Nc1cccc(OCC(=O)N(C)c2ccccc2)c1
 : -0.45	0.08
CCOC(=O)c1cc(-c2ccccc2)n(CCC(=O)NCc2cccs2)c1C
 : -0.3	0.49
Oc1ccc(Br)cc1CNc1ccc(F)cc1
 : -0.15	0.125
CS(=O)(=O)Nc1cccc(C(=O)NCc2ccccc2)c1
 : 0.75	-0.12
Cc1ccc(N2C(=O)C3C4c5ccccc5C(CO)(c5ccccc54)C3C2=O)cc1[N+](=O)[O-] (stereo unspecified)
 : .	-0.085
CC(=O)c1ccc(S(=O)(=O)N(C)C2CCN(Cc3ccccc3C(F)(F)F)C2)cc1 (stereo unspecified)
 : .	0.185
CSc1scc2c1-c1[nH]c(=S)ncc1CC2
 : .	0.615
O=C1CC(c2ccccc2)c2cccc(Oc3cccc(C(F)(F)F)c3)c21 (stereo unspecified)
 : .	-0.745
Cc1cc(-c2onc(C)c2C(=O)NNC(=O)Cc2nc(-c3ccccc3)oc2C)no1
 : .	0.495
O=C(c1ccccc1)C1CCN(C(=O)c2cccc(C(F)(F)F)c2)CC1
 : 2	-0.56
COc1ccc(C(=O)Nc2ccc(-n3nncc3C(C)(C)C)cc2)cc1
 : -0.55	0.415
CCOc1ccc(CCN2C(=O)CC(C(N)=O)SC2=Nc2ccc(F)cc2)cc1OCC (stereo unspecified)
 : .	-0.405
Cc1cccc(-c2ocnc2C(=O)Nc2ccc(N3CCN(S(C)(=O)=O)CC3)cc2)c1
 : 0.3	.
CCCCCC(=O)NC1CCN(C)CC1
 : 1	0.08
Cc1cc(C2N=C(N)Nc3nc4ccccc4n32)c(C)n1C1CC1 (stereo unspecified)
 : -0.25	.
CN(Cc1ccccc1)C(=O)Cn1cnc(S(=O)(=O)N2CCCC2)c1
 : -1.05	-0.435
O=C(OCC1CC=CCC1)N1CCN(c2ccc(C(F)(F)F)cn2)CC1 (stereo unspecified)
 : .	2.08
O=C1CCC(=O)N1c1ccc(F)cc1F
 : .	0.01
CCNC(=S)N1CCc2cc(OC)c(OC)cc2C1COc1ccc2c(C)cc(=O)oc2c1 (stereo unspecified)
 : 0.8	0.245
O=C1CCCC2=C1C(c1ccccn1)C1=C(CCCC1=O)N2
 : 0	.
Cc1cccc(C)c1NC(=O)C1(N(Cc2ccccc2)C(=O)CO)CCCCC1
 : .	-0.68
COc1ccc(Cn2cnc3c2c(=O)n(C)c(=O)n3C)cc1
 : 0.5	1.39
S=C(Nc1cccnc1)Nc1cccnc1
 : 0.5	0.96
Cc1ccc(N2CC(NC(=O)NCc3ccccn3)CC2=O)cc1 (stereo unspecified)
 : -0.25	.
O=C1CCC(C(=O)N2CCCC2c2nc3ccccc3s2)=NN1c1ccccc1 (stereo unspecified)
 : 0.7	.
COC(=O)C(C#N)c1nc2ccccc2nc1Cl (stereo unspecified)
 : -0.3	.
CC1(C)CC(=O)c2cc(C(=O)N3CCCC(C)(C)C3)c(=O)n(-c3ccccc3)c2C1
 : -0.3	.
C/C(=N/O)c1nnc2cc(C)nn2c1C
 : -0.4	-1.61

More results.
Below each SMILES: AID504770	CapD inh
c1ccc(Sc2c(-c3ccccc3)nc3ccccn23)cc1
 : .	15
Cc1cccc(OCc2nnc(SCC(=O)c3cc(C)n(-c4ccc5c(c4)OCO5)c3C)o2)c1
 : 0.6	.
N#Cc1ccc(OCC(=O)N2CCOCC2)cc1
 : 1.5	.
COc1ccc(CC(=O)OCC(=O)Nc2ccc(N3CCOCC3)cc2)cc1
 : -0.65	.
O=C(CSc1cccc[n+]1[O-])c1cc2ccccc2o1
 : 0.15	-0.4
Cc1cc(C)c(C)c(S(=O)O)c1C
 : -0.3	.
CN1CCN(CC(=O)N2c3ccccc3C(C)(c3ccccc3)CC2(C)C)CC1 (stereo unspecified)
 : .	-0.435
c1ccc(NCCNc2ncnc3sccc23)nc1
 : 1.5	.
Cc1cc(-c2ccccc2)nc(SCc2ccccc2)c1C#N
 : 0.8	40.7
O=C(NC1CCCCC1)n1c(=O)oc2ccc(Cl)cc21
 : -0.75	0.255
CCOc1ccccc1NC(=O)c1ccc(C)cc1
 : 0.7	1.56
Cc1ccc(S(C)(=O)=NC(=O)NC(=O)c2c(Cl)cccc2Cl)cc1 (stereo unspecified)
 : -0.6	-0.5
O=C(C1CCN(S(=O)(=O)c2ccccc2)CC1)N1CCCCCC1
 : .	-0.605
C=CCN1C(C(=O)c2ccccc2)=C(OC(=O)c2ccccc2)c2ccccc2S1(=O)=O
 : 0.5	2.02
CC1CN(Cn2nc(-c3cccs3)n(-c3ccccc3)c2=S)CC(C)O1 (stereo unspecified)
 : 0.85	.
CCOC(=O)C1=C(N)Oc2ccc3ccccc3c2C1c1cccnc1 (stereo unspecified)
 : .	-0.13
CCS(=O)c1ccccc1C(=O)OCc1cc(=O)oc2cc(C)c(C)cc12 (stereo unspecified)
 : 0.1	.
CN1CCc2nc3ccccc3c(C(=O)OCC(=O)Nc3ccccc3C#N)c2C1
 : 1.55	.
O=C(NC1CCCCCC1)C1CCCN(c2nc3ccccc3o2)C1 (stereo unspecified)
 : -0.8	.
O=C(Cn1cnc2c(nnn2Cc2ccc(Cl)cc2)c1=O)NCC1CCCO1 (stereo unspecified)
 : -0.6	.
Cc1cc(N2CCOCC2)nc2ccc(NC(=S)NC3CC3)cc12
 : -0.85	20.9
C=C1SC(Nc2c(CC)cccc2CC)=NC1(C)C
 : -0.45	0.74
COc1ccc(/C=N/N2C(=S)SC(C)(C)C2N(O)C(=O)NC2CCCCC2)cc1OC (stereo unspecified)
 : .	-0.625
Oc1ccc(CN2CCN(c3cccc(C(F)(F)F)c3)CC2)cc1
 : -0.7	0.5
O=C(Nc1ccccc1)n1nnc(C2CN(Cc3ccccc3)CN(Cc3ccccc3)C2)n1
 : 0	0.12
COC(=O)CSc1nc2ccccc2nc1Cc1cccc([N+](=O)[O-])c1
 : .	0.685
CCc1ccc(OC)c(S(=O)(=O)NC2CCCCC2)c1
 : -0.4	-1.09
CCC1CCCCN1C(=O)c1ccc(F)cc1 (stereo unspecified)
 : -0.6	-0.25
COc1ccc(Br)cc1C1CC(=O)C(C)C(c2cc(Br)ccc2OC)N1 (stereo unspecified)
 : -0.8	0.465
S=C(Nc1ccc(N2CCOCC2)nc1)Nc1cc(Cl)ccc1Cl
 : 1.7	1.49
CCn1c(C(=O)Nc2cc(C)ccc2C)cc2sc(Cl)cc21
 : 0.2	-0.16
NC(=O)CSCc1ccc(Br)cc1
 : -1.2	0.3
Cc1ccc(CC(C#N)Sc2nnc(-c3cccnc3)n2Cc2ccccc2)cc1 (stereo unspecified)
 : 0.95	.
Cc1nn(C(C)(C)C)c(NC(=O)c2ccccc2)c1C#N
 : -0.9	0.18
COc1ccc(S(=O)(=O)NNC(=O)c2ccccc2-n2cccc2)cc1
 : .	0.665
NC(=O)C1CCN(Cc2ccccc2)CC1
 : -0.1	0.025
CCC(Sc1nncn1C)C(=O)Nc1ccc(OC(F)(F)F)cc1 (stereo unspecified)
 : 0.7	0.42
Nc1[nH]nc2nc(-c3ccccc3)c3c(c12)CCC3
 : 0.95	-0.42
COc1ccccc1Nc1c2c(nc3ccc(NC(=O)COc4cccc(C)c4)cc13)CCCC2
 : -0.2	-0.785
Cc1ccc2ncc3c(-c4ccccc4)n[nH]c3c2c1
 : 0.5	0.435
Cc1cccc(NC(=O)c2cccc3ccccc23)c1
 : .	0.08
Cc1nnc2sc(C(=O)Nc3ccccc3)c(C(=O)O)n2c1=O
 : .	-0.31
COC(=O)c1c(O)c2c([nH]c1=O)CCCC2
 : 0.2	.
c1ccc(Nc2ncnc3c2oc2ccccc23)cc1
 : 0.45	10.2
CN1C(=O)C(C(=O)NC(C)(C)C)C2CC1(C)Oc1ccccc12 (stereo unspecified)
 : -0.35	0.06
CC(=O)Nc1cc(NC(C)=O)[nH]n1
 : -0.8	-0.3
